High-throughput results from PubChem.
E coli growth: blocks Escherichia coli growth; OD600, 23 h; stronger effect = lower value; OD600 absorbance (test concentration not listed); 330,000 tested, 0.21% active;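 active means OD600 absorbance below the run mean of sample wells minus 3.6 SD, in any replicate, cut at about 0.56 in these data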;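 further: stock transfer was 300 nL into about 60 µL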
The depositor's hits bear a star; & = joins results of further samples. Not all compounds are listed. The share of hits here may be higher or lower than overall.

E coli growth,Molecule
0.72,CC1CN(C(C)CO)C(=O)c2cccc(NS(=O)(=O)c3ccccc3)c2OC1CN(C)C(=O)Nc1ccc2c(c1)OCO2 (stereo not given)
0.69,COc1cc(F)c(C2=CC(=O)CC(c3ccc(Cl)cc3)C2)cc1F (stereo not given)
0.7,CC(NC(=O)C(C#N)=Cc1ccc(O)c(O)c1)c1ccccc1 (stereo not given)
0.63,Cc1cc(CNC(=O)C(C)C2C[C@@]2(C)C(NC(=O)OCc2ccccc2)c2ccccc2)nn1C (stereo not given in full)
0.63,COCCN1C(=O)NC(CCc2ccccc2)C(C(=O)OC)C1C (stereo not given)
0.7,CCOC(=O)CN1C(=O)NC(c2ccc(Br)cc2)C(C(C)=O)=C1C (stereo not given)
0.67,Cc1noc(C)c1NC(=O)N(C)CC1Oc2ccc(NC(=O)CCC(F)(F)F)cc2C(=O)N(C(C)CO)CC1C (stereo not given)
0.75,COC(=O)c1[nH]c(C)c(C(O)=C2C(=O)C(=O)N(CCN(C)C)C2c2cc(OC)ccc2OC)c1C (stereo not given)
0.71,O=C(CC1C(=O)N(Cc2ccccc2)CC1Cc1ccccc1)Nc1ccccc1 (stereo not given)
0.68&0.7,COc1ccc2cc1Oc1ccc(cc1)CC1c3cc(c(OC)cc3CCN1C)Oc1c(OC)c(OC)cc3c1C(C2)N(C)CC3 (stereo not given)
0.69,O=C1C=C(c2ccc3cc[nH]c3c2)CC(c2ccc3c(c2)OCO3)C1 (stereo not given)
0.71,CC1CN(C(C)CO)C(=O)c2cccc(NC(=O)c3ccncc3)c2OC1CN(C)C(=O)Nc1ccc2c(c1)OCO2 (stereo not given)
0.68,C#CCOCCOCCOCCNc1nc(OC)nc(N2CCN(C(=O)C(CCCCN)n3cc(C(N)CO)nn3)CC2)n1 (stereo not given)
0.64,CCCCCCCN1C(Nc2ccccc2)=NCC1Cc1ccccc1 (stereo not given)
0.73,CC1CN(C(C)CO)C(=O)c2cc(NC(=O)Cn3cnnn3)ccc2OC1CN(C)Cc1ccc(Cl)c(Cl)c1 (stereo not given)

Further entries.
E coli growth,Molecule
0.69,NC1=NCC(c2ccccc2)N1CC1CCCCC1 (stereo not given)
0.7,CC(CCN1C(Nc2ccccc2)=NCC1Cc1ccccc1)c1ccccc1 (stereo not given)
0.64&0.68,O=C(NCc1ccccc1)C1=CC(c2ccc3c(c2)OCO3)CC(OCCCCO)O1 (stereo not given)
0.71,CCN1C(=O)C2C(c3ccc(OC)cc3)N3C(=O)CN(CCOC)C(=O)[C@@]3(Cc3ccccc3)C2C1=O (stereo not given in full)
0.69,COC(=O)C1CC(C(=O)O)C(C)C1(C)C (stereo not given)
0.72,N#CCCn1cc(C=C2NC(=S)N(c3ccccc3)C2=O)c(-c2ccc(-c3ccccc3)cc2)n1
0.69&0.69,C#Cc1ccc(C2C=C(C(=O)N3CCOCC3)OC(OCc3ccc(CO)cc3)C2)cc1 (stereo not given)
0.71,C[C@]12CCC3c4ccc(O)cc4CCC3C1CC(O)C2OC1OC(C(=O)O)C(O)C(O)C1O (stereo not given in full)
0.69,COC(=O)CCCC1CC2(CC(CCCO[Si](C)(C)C(C)(C)C)N1C(=O)OC(C)(C)C)OCCO2 (stereo not given)
0.7,CCN1C(=O)C2C(c3ccc(-c4ccccc4)c(OC)c3)N[C@@](CC(C)C)(C(=O)OC)C2C1=O (stereo not given in full)
0.72,CSc1ccc(C=NNC(=O)c2cccc(O)c2)cc1
0.65,COCCN=C1NC(c2ccc(Br)cc2)C(C(=O)OC)=C(C)N1Cc1ccccc1 (stereo not given)
0.7,COc1ccc(NC(=O)N(C)CC2Oc3ccc(NC(=O)Cc4ccccc4)cc3C(=O)N(C(C)CO)CC2C)cc1 (stereo not given)
0.69,CCOC(=O)CN1C(=O)NC(c2cccc(F)c2)C(C(C)=O)=C1C (stereo not given)
0.69,COC(=O)C(CCSC)NS(=O)(=O)c1ccccc1Br (stereo not given)

3 entries already listed, arranged by their value in E coli growth, falling.
E coli growth,Molecule
0.72,CSc1ccc(C=NNC(=O)c2cccc(O)c2)cc1
0.69,NC1=NCC(c2ccccc2)N1CC1CCCCC1 (stereo not given)
0.65,COCCN=C1NC(c2ccc(Br)cc2)C(C(=O)OC)=C(C)N1Cc1ccccc1 (stereo not given)

Going on with the list.
E coli growth,Molecule
0.62,COc1ccc(NC(=O)Nc2ccc3c(c2)C(=O)N(C(C)CO)CC(C)C(CN(C)S(C)(=O)=O)O3)cc1 (stereo not given)
0.71&0.71&0.69,CCOC(=O)C1C2COc3ccc(Br)cc3C2N2C(=O)N(c3ccc(F)cc3)C(=O)[C@@]12C (stereo not given in full)
0.7,CC(C)(C)OC(=O)NCCCCC(NC(=O)c1[nH]cnc1C(=O)Nc1ccc(Cl)cc1)C(=O)OC(C)(C)C (stereo not given)
0.73,CCCCCCC(=O)N1CC=CC(c2ccc(OC)cc2)N(Cc2ccc(F)cc2)C(=O)C1Cc1ccccc1 (stereo not given)
0.66,O=C1C2C3C=CC(C3)C2C(=O)N1n1cnnc1 (stereo not given)
0.72,CC1CCC2C(=O)N3C(CCC(C)C3c3ccc(Br)cc3)C(=O)N2C1c1ccc(Br)cc1 (stereo not given)
0.71,COc1ccc2c(c1)C1C(CO2)C(c2ccccc2)[C@]2(C)C(=O)Nc3cc(OC)c(OC)cc3C(=O)N12 (stereo not given in full)
0.69,COc1cccc(CCN2C(=O)C(=O)N(C(CNCc3ccccc3)Cc3ccccc3F)CC2C(C)(C)C)c1 (stereo not given)
0.66,COc1cc(C2CC=C(C(=O)O)C(c3ccc(F)cc3)N2S(=O)(=O)c2ccc(C)cc2)cc(OC)c1OC (stereo not given)
0.63,CCCCC1CNCCN1CCc1cccc2ccccc12 (stereo not given)
0.64,CC(C)(O)C=CC[C@](C)(O)C1CC[C@]2(C)C1C(OC1OC(CO)C(O)C(O)C1O)CC1[C@@]3(C)CCC(O)C(C)(C)C3C(O)C[C@]12C (stereo not given in full)
0.7,C=CCC(CC(=O)NCCO)C(=O)NCCOC(=O)C(CC=C)CC(=O)OC(C)(C)C (stereo not given)
0.68,CC1CN(C(C)CO)C(=O)c2cc(NC(=O)c3ccncc3)ccc2OC1CN(C)S(=O)(=O)c1ccc(F)cc1 (stereo not given)
0.66&0.73,C=CCOC(=O)C1=CC(c2csc3ccccc23)CC(OCc2ccc(CO)cc2)O1 (stereo not given)
0.62,COc1ccc(SCC(C)CN2CCC(NC(=O)OCc3ccccc3)CCC2=O)cc1 (stereo not given)

(listing goes on)
E coli growth,Molecule
0.7,CC1CN(C(C)CO)C(=O)c2cc(NC(=O)Nc3ccc(C(F)(F)F)cc3)ccc2OC1CN(C)S(C)(=O)=O (stereo not given)
0.71,CCN1C(=O)C2C(c3ccc(-c4ccc(Cl)c(Cl)c4)cc3)N[C@@](CC(C)C)(C(=O)OC)C2C1=O (stereo not given in full)
0.7,C=C(C)C(=O)N1CC2(CC(c3cccc(NC(=O)C=CC)c3)=NO2)CC1C(N)=O (stereo not given)
0.68,CC=C(C)C(=O)NCCN1C2=NCC(Cc3ccccc3)N2CC1Cc1ccc(O)cc1 (stereo not given)
0.69&0.7,C#CCNC(=O)C1=CC(C)CC(OCc2ccc(CO)cc2)O1 (stereo not given)
0.66,CCOC(=O)C1CCCCN1C(=O)C(=Cc1ccc(OC)cc1)c1ccc(OC)c(OC)c1 (stereo not given)
0.69,COCCN1C(=O)NC(c2ccccc2)C(C(C)=O)=C1C (stereo not given)
0.71,Cc1noc(C)c1NC(=O)Nc1ccc2c(c1)C(=O)N(C(C)CO)CC(C)C(CN(C)S(=O)(=O)c1ccccc1)O2 (stereo not given)
0.69,N#CC(=CC=Cc1ccccc1)c1nc(-c2ccc3c(c2)OCO3)cs1
0.65,O=C1C(=Cc2cccnc2)Sc2ccccc21
0.71,C=CCC(CC(=O)N(CCO)Cc1ccccc1)C(=O)NCCOC(=O)C(CC=C)Cc1ccc(F)cc1 (stereo not given)
0.7,COC(=O)c1ccc(C23CC4(C2)C(CN(Cc2cccnc2)C4c2ccccc2)C3c2ccc(Cl)nc2)cc1 (stereo not given)
0.72,CCN1C(=O)C2C(c3ccc(SC4CCCCC4)cc3)N[C@@](CC(C)C)(C(=O)OC)C2C1=O (stereo not given in full)
0.72&0.63,C#Cc1ccc(C2C=C(C(=O)NC3CC3)OC(OCC)C2CCCO)cc1 (stereo not given)
0.67,CCOC(=O)C1C2COc3ccc(OC)cc3C2N2C(=O)CNC(=O)[C@@]12C (stereo not given in full)

Filtered by structure: the compounds so far with a Cl atom.
E coli growth,Molecule
0.69,COc1cc(F)c(C2=CC(=O)CC(c3ccc(Cl)cc3)C2)cc1F (stereo not given)
0.73,CC1CN(C(C)CO)C(=O)c2cc(NC(=O)Cn3cnnn3)ccc2OC1CN(C)Cc1ccc(Cl)c(Cl)c1 (stereo not given)
0.7,CC(C)(C)OC(=O)NCCCCC(NC(=O)c1[nH]cnc1C(=O)Nc1ccc(Cl)cc1)C(=O)OC(C)(C)C (stereo not given)
0.71,CCN1C(=O)C2C(c3ccc(-c4ccc(Cl)c(Cl)c4)cc3)N[C@@](CC(C)C)(C(=O)OC)C2C1=O (stereo not given in full)
0.7,COC(=O)c1ccc(C23CC4(C2)C(CN(Cc2cccnc2)C4c2ccccc2)C3c2ccc(Cl)nc2)cc1 (stereo not given)

Exported comma-delimited: entries from further up
SMILES,E coli growth
CC1CN(C(C)CO)C(=O)c2cc(NC(=O)Nc3ccc(C(F)(F)F)cc3)ccc2OC1CN(C)S(C)(=O)=O (stereo not given),0.7
CCN1C(=O)C2C(c3ccc(SC4CCCCC4)cc3)N[C@@](CC(C)C)(C(=O)OC)C2C1=O (stereo not given in full),0.72
O=C1C(=Cc2cccnc2)Sc2ccccc21,0.65

Going on with the list.
E coli growth,Molecule
0.7,C#CCOC1CC(n2cnc3c(NC(=O)c4ccccc4)ncnc32)OC1CO (stereo not given)
0.62,CC(C)(C)c1ccc(C=CC(=O)c2ccc(NC3=NCCCS3)cc2)cc1
0.68,Cc1ccc(C(=O)NCCN2C3=NCC(C)N3CC2Cc2ccc(O)cc2)cc1Br (stereo not given)
0.75,CCN1C(=O)C(=CN2CCN(c3ccccc3)CC2)SC1=S
0.71,COc1ccccc1NC(=O)CC1SC(=NN=C2CCCc3ccccc32)NC1=O (stereo not given)
0.69&0.76,O=S(=O)(N(Cc1ccccc1)C(CO)Cc1ccccc1)N(Cc1ccccc1)C(CO)Cc1ccccc1 (stereo not given)
0.67,CNCC1Oc2ccc(NC(=O)Nc3ccc4c(c3)OCO4)cc2C(=O)N(C(C)CO)CC1C (stereo not given)
0.68,CCOC(=O)C1C2COc3ccccc3C2N2C(=O)c3cc(C)ccc3NC(=O)[C@@]12C (stereo not given in full)
0.69,COc1ccc2c(c1)OCC1C2N2C(=O)CN(Cc3ccco3)C(=O)[C@@]2(C)C1c1ccccc1 (stereo not given in full)
0.72,C#CCOCCOCCOCCNc1nc(N2CCN(C(=O)C(CCCCN)n3cc(C(N)CC(N)=O)nn3)CC2)nc(N2CCN(C(=O)C(CCCCN)n3cc(C(N)C(C)CC)nn3)CC2)n1 (stereo not given)
0.7,Cc1ccc(NC(=O)C(C#N)=Cc2cc(C)n(-c3ccc(N4CCOCC4)c([N+](=O)[O-])c3)c2C)c(C)c1
0.71,COc1cccc(-n2nnc3c(=O)n(CC=Cc4ccccc4)cnc32)c1
0.64,O=C(O)C1=CCC(c2ccc(Cl)cc2)N(S(=O)(=O)c2ccc(Cl)cc2)C1c1cccc(Cl)c1 (stereo not given)
0.67,CCN1C(=O)C2C(c3ccc(-c4cccc(Cl)c4)cc3)N[C@@](CC(C)C)(C(=O)OC)C2C1=O (stereo not given in full)
0.69,CCCCCC(=O)Nc1cccc(C2=NOC3(C2)CC(C(N)=O)N(C(=O)C2CCC(=O)N2)C3)c1 (stereo not given)

Additional results follow.
E coli growth,Molecule
0.73,COc1ccc(C2C=CCN(C(=O)Oc3ccc(C(F)(F)F)cc3)CC(=O)N2Cc2ccc(F)cc2)cc1 (stereo not given)
0.69,CCCCCC(=O)Nc1cccc(C2=NOC3(C2)CC(C(N)=O)N(C(=O)COc2ccc(Cl)cc2)C3)c1 (stereo not given)
0.71,Cc1ccc(SCC(O)=C(C#N)c2nc3ccccc3n2C)cc1
0.7,COc1ccc(-c2cc(C3C4C=CCC(C)C4C(=O)N3Cc3ccccc3)ccc2F)cc1OC (stereo not given)
0.69,Cc1cccc(C2C3C(=O)N(Cc4ccccc4)C(=O)C3[C@]3(C)C(=O)N(c4cccc(Cl)c4)C(=O)N23)c1 (stereo not given in full)
0.67,O=C(C1=CC(c2ccc(C(F)(F)F)cc2)CC(OCCCCO)O1)N1CCCCCCC1 (stereo not given)
0.76,O=C1C2C(c3ccccc3)CC=CC2C(c2cccc([N+](=O)[O-])c2)N1Cc1ccccc1 (stereo not given)
0.66,CCCCN1CCC2C=CCC(C(=O)Nc3ccc(Cl)cc3Cl)C2C1=O (stereo not given)
0.73,C=CC1c2ccccc2N(S(=O)(=O)c2ccc(C)cc2)C(c2ccccc2C(F)(F)F)C1(C#N)C#N (stereo not given)
0.68,CC(NC(=O)c1nc[nH]c1C(=O)NC(C)c1ccccc1)C(=O)OCc1ccccc1 (stereo not given)
0.7,Cc1ccc(S(=O)(=O)N2C(c3ccc4c(c3)OCO4)CC=C(C(=O)O)C2c2ccccc2)cc1 (stereo not given)
0.71,COc1ccc(C2CC(=O)C=C(c3ccc4ccccc4c3)C2)cc1OC (stereo not given)
0.69,COc1ccc(CN2CC(=O)N3C4c5cc(C)ccc5OCC4C(c4ccccc4)[C@]3(C)C2=O)cc1 (stereo not given in full)
0.72&0.71&0.66,C=CCCC(Cc1ccc(F)cc1)C(=O)OCC(C)NC(=O)C(CC=C)CC(=O)N(CCO)Cc1ccccc1 (stereo not given)
0.69,CC(NC(=O)c1nc[nH]c1C(=O)N1CCN(C(=O)OC(C)(C)C)CC1)C(=O)OC(C)(C)C (stereo not given)

More entries.
E coli growth,Molecule
0.68,CC(C(=O)NCc1ccccn1)C1C[C@]1(C)C(NC(=O)OCc1ccccc1)c1ccccc1 (stereo not given in full)
0.67,O=C(C1=CC(c2csc3ccccc23)CC(OCCCCO)O1)N1CCN(Cc2ccccc2)CC1 (stereo not given)
0.71,CC(C)C[C@@]12C(=O)N(c3ccc(Br)cc3)C(=O)N1C(c1ccc(Br)cc1)C1C(=O)N(C(C)(C)C)C(=O)C12 (stereo not given in full)
0.7,CCOC1OC(C(=O)N2CCN(Cc3ccc4c(c3)OCO4)CC2)=CC(c2ccccc2)C1CCCO (stereo not given)
0.73&0.67,O=C(C1=CC(C2CCCCC2)CC(OCc2ccc(CO)cc2)O1)N1CCOCC1 (stereo not given)
